# HIV Env fusion: HIV envelope-mediated fusion inhibition; HeLa-JRFL Env/CEM21 cell fusion, luciferase; 360,000 tested, 1.1% active; inhibition, % at 12.3 µM;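 active = mean replicate inhibition score of at least 50 and every replicate individually at or above 50; inconclusive = only one of the two criteria met; inactive = mean below 50 and not all replicates reaching 50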;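 also: 0% = plate neutral controls and 100% = maraviroc near 300 nM; one replicate is shown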
# MT1-MMP act inh: inhibitors of human MT1-MMP activation; P50281; HT1080 RFP-PRO-GFP cells, GFP/RFP ratio fluorescence, overnight; percent of plate control window, DMSO zero; 360,000 tested, 0.061% active; GFP/RFP ratio change, % at 20 µM;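 active = GFP/RFP ratio change of at least 30% with cell ATP level not reduced by more than half and red fluorescence within 50% of control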; also: strong numbers were not always called active
#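 Compound: 20 µM single dose, 1% DMSO / System: HT1080 RFP-PRO-GFP cells / Controls: DMSO and RFP-L50D-GFP cell wells / Read-out basis: GFP/RFP fluorescence ratio / Schedule: overnight compound exposure at 37 °C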
# MT1-MMP act inh RFP: also measured in MT1-MMP act inh; calls as there; RFP signal change, %; measured here: RFP expression control read;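 0 = vehicle wells; hits needed this value within 50% of zero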
# Starred values were filed as active, the others as inactive; ? = inconclusive. These rows are one share of the data (hit frequency here may not be typical).
SMILES,HIV Env fusion,MT1-MMP act inh,MT1-MMP act inh RFP
COc1ccc(C(C(=O)NC(C)(C)C)n2c(=O)c(-c3cc4ccccc4[nH]3)nc3ccccc32)cc1 (stereo unspecified),11,-7,-12
CCOC(=O)C(CC)c1cc2n(c(=O)c1C#N)CCC21OCCO1 (stereo unspecified),-2,3,3
COc1cccc(-c2nc(Cl)nc3cc(Cl)ccc23)c1,-493,4,0
O=C(COC(=O)COc1cccc(Br)c1)Nc1ccc(F)cc1F,-13,0,0
COC(=O)c1ccc2cc(OC)cc([N+](=O)[O-])c2n1,-7,4,4
C[C@H](O)[C@@H]1CN2CCc3c([nH]c4ccccc34)[C@@H]2C[C@@H]1N(C)C(=O)NC1CCCCC1,-19,-3,8
C=CCN1[C@@H](Cc2ccccc2)COc2cc(N3CCSCC3)ccc2S1(=O)=O,-3,2,-14
Cn1c(NCCN2CCCC2)nc2cc(-c3ccsc3)sc2c1=O,-38,4,1
Cc1ccc(S(=O)(=O)C[C@@H]2OC[C@H](C)N2S(=O)(=O)c2ccc(C)cc2)cc1,-8,2,-4
COc1cc(CN2C[C@@H](CO)O[C@@H](n3cnc4c(N5CCN(C)CC5)ncnc43)C2)cc(OC)c1OC,-10,4,6
O=C(NCc1ccc(Br)cc1)OC1CC2CC1[C@H]1CCCCN1C2=O (stereo partly specified),6,7,0
COCCCN1C(=O)C(CC(=O)NCCN2CCOCC2)CC(C(=O)N2CCOCC2)=C1C (stereo unspecified),-8,6,5
CCOC(=O)[C@]12CCC=C1N(Cc1ccc(Cl)cc1Cl)C(=O)[C@H](CC(=O)NCc1cccc(C(F)(F)F)c1)C2,16,-5,-11
O=C1c2ccccc2C(c2nnnn2Cc2ccccc2)N1Cc1ccc2c(c1)OCO2 (stereo unspecified),41,1,-2
O=C(Nc1ccn(CCOC(=O)c2ccccc2)c(=O)n1)c1ccccc1,2,2,4
CCCN(Cc1nnc(-c2cccs2)o1)C(=O)CN1C(=O)NC2(CCCCC2)C1=O,-11,-1,-1
Cc1c(NC(=O)c2cccc(NC(=O)COc3ccccc3C#N)c2)c(=O)n(-c2ccccc2)n1C,60*,2,4
O=C(O)CN1C(=O)C2C3CCC(C3)C2C1=O (stereo unspecified),2,3,3
Cc1ccc(S(=O)(=O)N2[C@@H](Cc3ccccc3)CO[C@H]2CC(=O)c2ccc(F)cc2)cc1,12,-6,-8
O=C1NC[C@H](CCCCN2C[C@H](Cc3ccccc3)N(CCc3ccc(O)cc3)C(=O)C2=O)N(CCc2ccccc2)C1=O,-12,0,0
CC1CCC(=NNS(=O)(=O)c2ccc([N+](=O)[O-])cc2)CC1 (stereo unspecified),2,3,2
CCOC(=O)[C@]12CCCC=C1N(CCc1ccc(OC)c(OC)c1)C(=O)[C@H](CC(=O)NCCc1ccccc1OC)C2,?,-6,-5
O=P(OCC1CCCO1)(OCC1CCCO1)OCC1CCCO1 (stereo unspecified),-5,-1,3
CCOc1ccc(CCN2C(=O)C(=O)N([C@@H](CC(C)C)CN3CCC[C@H]3CN3C(=O)C(=O)NC[C@@H]3CC(C)C)C[C@@H]2Cc2ccc(O)cc2)cc1,8,0,-2
O=C(NCCc1ccc(O)c(Br)c1)c1ccc(Br)o1,-42,1,3

# Structures above that have fluorine (three):
SMILES,HIV Env fusion,MT1-MMP act inh,MT1-MMP act inh RFP
O=C(COC(=O)COc1cccc(Br)c1)Nc1ccc(F)cc1F,-13,0,0
CCOC(=O)[C@]12CCC=C1N(Cc1ccc(Cl)cc1Cl)C(=O)[C@H](CC(=O)NCc1cccc(C(F)(F)F)c1)C2,16,-5,-11
Cc1ccc(S(=O)(=O)N2[C@@H](Cc3ccccc3)CO[C@H]2CC(=O)c2ccc(F)cc2)cc1,12,-6,-8

# Additional results follow:
SMILES,HIV Env fusion,MT1-MMP act inh,MT1-MMP act inh RFP
Cc1ccc(S(=O)(=O)N2[C@@H](CO)CO[C@H]2CC(=O)c2ccccc2)cc1,0,5,4
O=S(Cc1ccccc1)c1ccccc1 (stereo unspecified),-5,-1,1
CC(C)CC1OC(C)CC2=C1C(=O)OC(C)(C)O2 (stereo unspecified),-20,0,5
COC(=O)Nc1ccc2ccc3c(NC(=O)OC)ccc4ccc1c2c43,-26,-6,1
Cc1ccc2nc(SCC(=O)c3c(N)n(C4CC4)c(=O)[nH]c3=O)[nH]c2c1,-13,1,1
CCCCNC(=O)C(NC(=O)c1cnccn1)C(=O)c1ccccc1 (stereo unspecified),-57,-2,1
CCOP(=O)(OCC)C(Cc1ccc(OC)c(OC)c1)N=C(c1ccccc1)c1ccccc1 (stereo unspecified),21,-4,2
COC(=O)c1ccc2nc(-c3cccc(Cl)c3)c(Cc3cccc(F)c3)n2c1,9,-11,-15
Cc1ccc2c(c1)C=CC(C#N)N2C(=O)Oc1ccccc1 (stereo unspecified),-39,-13,4
Cc1nc(Nc2ncc3c(n2)CC(C)(C)CC3=O)nc2ccccc12,2,3,8
O=C1NC(O)CCN1C1CC(O)C(CO)O1 (stereo unspecified),-32,1,8
CCCCCNC(=O)C(c1ccc(OC)cc1)n1c(=O)c(-c2cc3ccccc3[nH]2)nc2ccccc21 (stereo unspecified),26,-3,-4
O=C(Nc1ccc([N+](=O)[O-])cc1)OC1CCS(=O)(=O)C1 (stereo unspecified),2,0,1
Cc1nc2c(OCc3ccc(F)c(F)c3)cccn2c1N(C)C(=O)CCC1CCCC1,3,-19,-30
O=C(COC(=O)c1cc(S(=O)(=O)N2CCOCC2)c(Cl)cc1Cl)NCc1ccco1,-9,2,5
CCCCN1C[C@H](Cc2ccccc2)[C@@H](CC(=O)Nc2ccc(OC)cc2)C1=O,1,6,4
CCOC(=O)/C(=C\c1ccc(N2CCC(c3ccccc3)=N2)cc1)C(C)=O,-358,-60,-1
CCOc1ccc(S(=O)(=O)N2CCN(C(=O)c3cc(C4CC4)nn3-c3ccccc3)CC2)cc1,-1,-2,-8
O=C1C=C(c2c(O)ccc3ccccc23)c2ccccc2C1=O,13,-5,-29
Cc1cc(C)n2c(NC3CCCCC3)c(-c3ccc(F)cc3)nc2n1,-30,2,7
Cc1cccn2c(=O)c3cc(C(=O)NCc4ccc(F)cc4)c(=N)n(CCCN4CCOCC4)c3nc12,-5,6,1
O=c1[nH][nH]c2c1[C@@H](c1ccc(F)cc1)O[C@H](CCc1ccccc1)C2,-188,5,-2
CCCCNc1c(-c2cc3ccccc3o2)nc2nc(C)cc(C)n12,-18,-3,11
COc1ccc(C(=O)NCCNc2nc3cc(C)cc(C)c3cc2C#N)c(OC)c1,-37,5,6
O=C1NC[C@H](CCCCN2CCN(CCC3CCCCC3)C(=O)C2=O)N(CCc2ccc(O)cc2)C1=O,14,-1,3
# The list goes on:
SMILES,HIV Env fusion,MT1-MMP act inh,MT1-MMP act inh RFP
O=C1/C(=C\c2ccccc2)CCC/C1=C/c1ccccc1,42,-3,2
COc1ccc(N2c3ccccc3CN(Cc3ccccc3)[C@@H](C)[C@H]2Cc2c(C)cccc2C)cc1,11,-8,-24
NC(COCc1ccccc1)c1csc(Nc2ncccn2)n1 (stereo unspecified),2,0,5
CCOC(=O)[C@]12CCC=C1N(Cc1ccccc1)C(=O)[C@H](CC(=O)N1CCCCC1)C2,-3,3,3
CCCCn1nnnc1C(c1ccccc1)N1CCN(c2ncc(C(F)(F)F)cc2Cl)CC1 (stereo unspecified),10,-11,-15
O=C(NC1CCCC1)C(c1ccccc1)n1c(-c2ccc3c(c2)CCO3)nc2ccccc21 (stereo unspecified),10,5,1
COCCN1C(=O)COc2ccccc2C1C(=O)Nc1ccc2c(c1)OCCO2 (stereo unspecified),1,6,2
O=C(NCCN1CCC(n2c(=O)[nH]c3ccccc32)CC1)c1ccc(Cl)c(Cl)c1,20,8,-6
COc1cccc(CNC(=O)[C@@H]2CCCN2C(=O)[C@H]2CCCCN2C(=O)c2ccccc2C)c1,1,1,4
Cc1cccc(N2CCN(C(C(=O)NCc3ccccc3)c3ccc(F)cc3)CC2)c1C (stereo unspecified),-4,-10,-15
CCOC(=O)C1=C(C(=O)OCC)c2ccc(OC)c(OC)c2C1,-1,-1,4
CCOC(=O)[C@]12CCCC=C1N(CCC1=CCCCC1)C(=O)[C@H](CC(=O)N1CCCC1)C2,5,-7,-15
O=c1[nH][nH]c2c1[C@H](c1ccc(Cl)cc1)O[C@H](C1CC1)C2,7,5,7
CC(C)C[C@H]1COc2cc(N3CCC[C@H]3CO)ccc2S(=O)(=O)N1,-15,7,2
Cc1cccc(C)c1NC(=O)C1(C)CN(S(C)(=O)=O)CC(=O)N1CCOc1ccccc1 (stereo unspecified),7,2,2
COCCN1C(=O)CN(S(C)(=O)=O)CC1(C)C(=O)Nc1c(C)cccc1C (stereo unspecified),-5,0,5
CC1C(=O)NN=C1c1ccc([N+](=O)[O-])cc1 (stereo unspecified),-242,1,2
CC(=O)C(=Cc1ccc(Cl)cc1)C(=O)c1ccccc1,-228,-3,-20
CCOc1ccc(NC(=O)COC(=O)c2ccc3ncsc3c2)cc1OCC,-7,4,3
CC(C)NC(=O)C1(C#N)C=C1c1ccccc1 (stereo unspecified),-15,-3,-5
COCCN(Cc1cc2cc(C)ccc2n2nnnc12)C(=S)Nc1ccc(OC)cc1,-59,3,-4
COc1ccc(C(C(=O)Nc2ccc3c(c2)OCCO3)n2c(=O)c(-c3ccco3)nc3ccccc32)cc1 (stereo unspecified),-3,-7,-10
CNN/C(N=Cc1ccc([N+](=O)[O-])s1)=N\S(=O)(=O)c1cc(C)c(Cl)cc1SCc1ccccc1,5,6,0
Cc1cccc(/C=N/NC(=O)C[n+]2ccccc2)c1,-13,-1,4
COc1cc(Br)c(CC2c3cc(OC)c(OC)cc3CCN2C)cc1OC (stereo unspecified),3,-8,-2

# Single records, as listed above. Values in the order: HIV Env fusion	MT1-MMP act inh	MT1-MMP act inh RFP
# O=C1c2ccccc2C(c2nnnn2Cc2ccccc2)N1Cc1ccc2c(c1)OCO2 (stereo unspecified) as listed: 41	1	-2
# CC(C)CC1OC(C)CC2=C1C(=O)OC(C)(C)O2 (stereo unspecified) as listed: -20	0	5
# Cc1ccc(S(=O)(=O)C[C@@H]2OC[C@H](C)N2S(=O)(=O)c2ccc(C)cc2)cc1 as listed: -8	2	-4

# An excerpt of these results, as tab-separated lines.
Structure	HIV Env fusion	MT1-MMP act inh	MT1-MMP act inh RFP
CNN/C(N=Cc1ccc([N+](=O)[O-])s1)=N\S(=O)(=O)c1cc(C)c(Cl)cc1SCc1ccccc1	5	6	0
COc1cc(Br)c(CC2c3cc(OC)c(OC)cc3CCN2C)cc1OC (stereo unspecified)	3	-8	-2
COc1ccc(C(C(=O)Nc2ccc3c(c2)OCCO3)n2c(=O)c(-c3ccco3)nc3ccccc32)cc1 (stereo unspecified)	-3	-7	-10
CCOC(=O)[C@]12CCC=C1N(Cc1ccccc1)C(=O)[C@H](CC(=O)N1CCCCC1)C2	-3	3	3
CC(=O)C(=Cc1ccc(Cl)cc1)C(=O)c1ccccc1	-228	-3	-20
O=C(NCCN1CCC(n2c(=O)[nH]c3ccccc32)CC1)c1ccc(Cl)c(Cl)c1	20	8	-6

# Other compounds
SMILES,HIV Env fusion,MT1-MMP act inh,MT1-MMP act inh RFP
CN(CC(=O)O)Cc1oc(CO)cc(=O)c1O,-6,1,4
CCCNC(=O)N[C@H]1C=C[C@H](CC(=O)OC)O[C@@H]1CO,1,1,8
CC(C)c1cc(Cn2c3ccccc3c(=O)n2C(C)Cn2cc(CCc3ccccc3)nn2)on1 (stereo unspecified),29,2,2
NC(=Nc1c([N+](=O)[O-])cnc2ccccc12)N1CCOCC1,6,3,-2
Nc1ncnc2c1nc(-c1ccccc1)n2C1OC(CO)C(O)C1O (stereo unspecified),3,2,10
Cc1cc(O)c(C(C)C)cc1NC(=O)Nc1ccc([N+](=O)[O-])cc1,-25,-1,-7
O=C1NC[C@@H](CCCCN2CCN(CCc3ccccc3)C(=O)C2=O)N(CCc2ccc(O)cc2)C1=O,-2,2,3
Cc1ccc(S(=O)(=O)N2CC3C(=O)C[C@@H](c4ccccc4)N(S(=O)(=O)c4cccc(Cl)c4)C3CC2c2ccccc2)cc1 (stereo partly specified),-46,-6,-9
Nc1[nH]c(C(=O)c2ccccc2)c(-c2ccncc2)c1C(=O)NC1CC1,41,2,3
CC(C)C[C@H]1CNC(=O)C(=O)N1C[C@H]1CCCN1C[C@H](CC(C)C)N1C[C@H](CC(C)C)N(CCc2ccccc2)C(=O)C1=O,-44,-3,-1
CCOC(=O)[C@]12CCCC=C1N(Cc1ccccc1)C(=O)[C@H](CC(=O)N1CCN(C(=O)C3CC3)CC1)C2,-19,3,6
COC(=O)[C@@]12C[C@@H](CC(=O)NCc3ccc(C)o3)C(=O)N(Cc3ccccc3)C1=CCC(C)(C)C2,-7,-7,-2
CC(C)(C)NC(=O)C(c1ccncc1)n1c(=O)c(-c2ccco2)nc2ccccc21 (stereo unspecified),-18,-4,3
COc1ccc(-c2nc3cc(C)c(Br)c(C)n3c2Cc2ccccc2C(F)(F)F)cc1OC,-9,0,-7
CCCCn1nnnc1C(c1ccccc1)N1CCN(C)CC1 (stereo unspecified),-12,-1,-1
Nc1nc2ncccn2c1-c1ccc(F)c(F)c1,12,4,6
CCCCOCCCNC(=O)C[C@@H]1C[C@@]2(C(=O)OC)CCCCC=C2N(Cc2ccc3c(c2)OCO3)C1=O,-15,3,-1
CC(C)C[C@H]1CN(CCCC[C@H]2CNC(=O)C(=O)N2CCc2ccc(O)cc2)C(=O)C(=O)N1CCc1ccc(O)cc1,-3,1,2
COCC(=O)N1C[C@H](C)[C@H](OC)CN(C)C(=O)c2cc(NC(=O)Nc3cccc(F)c3)ccc2OC[C@@H]1C,?,3,1
CCOCC(=O)NC1CCc2cc(OC(=O)COCC)c(OC)c(OC)c2-c2ccc(SC)c(=O)cc21 (stereo unspecified),-302,31,3

# Screening data: PubChem, several laboratories
